Compound activity from PubChem BioAssay.
VDR inhibitor – Inhibitors of the vitamin D receptor (VDR): qHTS; Potency, µM, inactives show max response, negative = inhibition, actives largely listed as inhibitors; 0.93% of 400,000 active; Vitamin D3 receptor (Homo sapiens), P11473; VDR-SRC2-3 peptide fluorescence polarization, 2 h; AID 504847, 2011; active = well fitted inhibition curve with a large enough effect; inconclusive = small, poorly fitted or top-dose-only effect, or another doubt; inactive = no such curve, though single readings can be large or run the other way; also: series mostly up to about 120 µM
Target sequence (P11473 whole entry, looked up): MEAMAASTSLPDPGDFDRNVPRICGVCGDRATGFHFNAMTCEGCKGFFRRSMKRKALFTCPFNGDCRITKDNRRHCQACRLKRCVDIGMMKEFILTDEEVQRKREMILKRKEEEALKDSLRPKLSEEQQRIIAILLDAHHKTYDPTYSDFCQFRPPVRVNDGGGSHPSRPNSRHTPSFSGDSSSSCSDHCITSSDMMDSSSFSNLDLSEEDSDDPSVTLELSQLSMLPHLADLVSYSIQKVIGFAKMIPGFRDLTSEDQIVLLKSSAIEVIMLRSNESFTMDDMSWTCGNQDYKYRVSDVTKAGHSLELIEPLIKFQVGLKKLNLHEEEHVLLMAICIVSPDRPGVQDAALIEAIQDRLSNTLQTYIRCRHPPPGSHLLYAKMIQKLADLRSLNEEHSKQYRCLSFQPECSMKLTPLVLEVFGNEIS
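Inhibition of the VDR/SRC2-3 peptide interaction is quantified by fluorescence polarization. Compounds (23 nl, pintool) incubate with the reagents for 2 hours at ambient room temperature.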
The depositor's hits bear a star; ? = inconclusive; & = joins results of further samples; [ ] = another dose, or the depositor's remark. % is scaled to controls: 0 for no effect and ±100 for the full control effect; potency is read from the fitted curve at half-maximal effect. The list is partial (hit frequency here may not be typical).

The first 26 compounds (preview)
SMILES | VDR inhibitor
COc1ccc(N(CC(=O)Nc2ccc(S(=O)(=O)N3CCOCC3)cc2)S(=O)(=O)c2ccc(F)cc2)cc1 | 4.9%
CN1CCN(c2ccccc2NC(=O)C(Cc2ccccc2)n2cccc2)CC1 (centres undefined) | -26.6%
CC(=O)C1=C(O)CC(c2ccccc2)CC1=NCCc1c(C)[nH]c2ccc(C)cc12 (centres undefined) | -5.8%
CC1CCCCN1C(=O)Cn1c(=O)oc2cc(S(=O)(=O)N3CCCC3)ccc21 (centres undefined) | -7.1%
CN(C)c1nc(C(N)=O)nc(N2CCOCC2)n1 | 17.1%
O=C(NCCN1CCOCC1)c1ccc(CS(=O)(=O)Cc2ccccc2F)o1 | 2.7%
Cc1cccc(NC(=O)C2CCN(S(=O)(=O)c3c(C)noc3/C=C/c3ccco3)CC2)c1C | -10.9%
Cc1ccc2oc(=O)c(/C=C(\O)c3cccs3)nc2c1 | -4.3%
N#CC1(NC(=O)CN2C(=O)c3ccccc3C2=O)CCCCC1 | -10.1%
CC1CCc2c(sc3nnn(CC(=O)Nc4ccc(Cl)cc4)c(=O)c23)C1 (centres undefined) | 8.3%
CS/C(=N\S(=O)(=O)c1ccccc1)c1ccccc1 | 4.6%
c1ccc(CNc2nc3ccccc3n3cnnc23)cc1 | -6.9%
COc1ccc(-n2c(Cc3cccn3C)nnc2SCC(=O)NCC2CCCO2)cc1 (centres undefined) | 2.0%
Cc1ccc2nc(/C(C#N)=C/c3ccccc3C(=O)O)[nH]c2c1 | 2.6%
Cc1cc(CN2CCC(n3nccc3NC(=O)c3ccccc3C)CC2)n[nH]1 | 7.2%
COC(=O)c1ccc(Cn2cc(C(F)(F)F)cc([N+](=O)[O-])c2=O)cc1 | 6.3%
CC(=O)N(C)/C=C1\Sc2ccccc2C1=O | 1.2%
CC1(c2ccccn2)Nc2ccccc2-c2nc3ccccc3n21 (centres undefined) | 14.4%
COc1ccc(C(=O)Nc2ccc(NC(=O)C(C)C)nc2)cc1 | 3.1%
COCC1CCCN(Cc2cn[nH]c2-c2cc3ccccc3o2)C1 (centres undefined) | 4.2%
CCN(CC)S(=O)(=O)c1ccc(C(=O)NCC(=O)NC2CC2)cc1 | -0.4%
Nc1nc(-c2ccc(Oc3ccccc3)cc2)c(CC(=O)O)s1 | ?
COc1ccc(C=C(c2nc3ccccc3s2)c2nc3ccccc3s2)cc1O | -1.5%
C/C(=N/NC(=O)c1ccc(C)s1)c1ccncc1 | -17.4%
COc1ccccc1-c1noc2ncnc(Nc3ccc4c(c3)OCO4)c12 | -10.9%
CCN(C(=O)CSc1nc(C)cc(=O)[nH]1)C1CCCCC1 | 6.1%

All compounds of this part, from the start:
SMILES | VDR inhibitor
COc1ccc(N(CC(=O)Nc2ccc(S(=O)(=O)N3CCOCC3)cc2)S(=O)(=O)c2ccc(F)cc2)cc1 | 4.9%
CN1CCN(c2ccccc2NC(=O)C(Cc2ccccc2)n2cccc2)CC1 (centres undefined) | -26.6%
CC(=O)C1=C(O)CC(c2ccccc2)CC1=NCCc1c(C)[nH]c2ccc(C)cc12 (centres undefined) | -5.8%
CC1CCCCN1C(=O)Cn1c(=O)oc2cc(S(=O)(=O)N3CCCC3)ccc21 (centres undefined) | -7.1%
CN(C)c1nc(C(N)=O)nc(N2CCOCC2)n1 | 17.1%
O=C(NCCN1CCOCC1)c1ccc(CS(=O)(=O)Cc2ccccc2F)o1 | 2.7%
Cc1cccc(NC(=O)C2CCN(S(=O)(=O)c3c(C)noc3/C=C/c3ccco3)CC2)c1C | -10.9%
Cc1ccc2oc(=O)c(/C=C(\O)c3cccs3)nc2c1 | -4.3%
N#CC1(NC(=O)CN2C(=O)c3ccccc3C2=O)CCCCC1 | -10.1%
CC1CCc2c(sc3nnn(CC(=O)Nc4ccc(Cl)cc4)c(=O)c23)C1 (centres undefined) | 8.3%
CS/C(=N\S(=O)(=O)c1ccccc1)c1ccccc1 | 4.6%
c1ccc(CNc2nc3ccccc3n3cnnc23)cc1 | -6.9%
COc1ccc(-n2c(Cc3cccn3C)nnc2SCC(=O)NCC2CCCO2)cc1 (centres undefined) | 2.0%
Cc1ccc2nc(/C(C#N)=C/c3ccccc3C(=O)O)[nH]c2c1 | 2.6%
Cc1cc(CN2CCC(n3nccc3NC(=O)c3ccccc3C)CC2)n[nH]1 | 7.2%
COC(=O)c1ccc(Cn2cc(C(F)(F)F)cc([N+](=O)[O-])c2=O)cc1 | 6.3%
CC(=O)N(C)/C=C1\Sc2ccccc2C1=O | 1.2%
CC1(c2ccccn2)Nc2ccccc2-c2nc3ccccc3n21 (centres undefined) | 14.4%
COc1ccc(C(=O)Nc2ccc(NC(=O)C(C)C)nc2)cc1 | 3.1%
COCC1CCCN(Cc2cn[nH]c2-c2cc3ccccc3o2)C1 (centres undefined) | 4.2%
CCN(CC)S(=O)(=O)c1ccc(C(=O)NCC(=O)NC2CC2)cc1 | -0.4%
Nc1nc(-c2ccc(Oc3ccccc3)cc2)c(CC(=O)O)s1 | ?
COc1ccc(C=C(c2nc3ccccc3s2)c2nc3ccccc3s2)cc1O | -1.5%
C/C(=N/NC(=O)c1ccc(C)s1)c1ccncc1 | -17.4%
COc1ccccc1-c1noc2ncnc(Nc3ccc4c(c3)OCO4)c12 | -10.9%
CCN(C(=O)CSc1nc(C)cc(=O)[nH]1)C1CCCCC1 | 6.1%
Cc1ccc(S(=O)(=O)NCc2cn3c(C)csc3n2)cc1 | ?
Cc1cc(C)n2ncc(C(=O)Nc3ccc(Cl)c(Cl)c3)c2n1 | -17.5%
CCOc1ccc(-n2c(=S)sc3c(=O)n(-c4ccccc4)c(SC)nc32)cc1 | ?
O=C(COC(=O)c1ccncc1)NC(=O)C1CCCCC1 | -7.7%
O=C(NO)c1ccc(C(=O)N(C2CCCCC2)C2CCCCC2)cc1 | -7.7%
Cc1ccc(NC(=O)n2ncc3c(C)cccc32)c(C)c1 | -12.2%&21.7%
OC1(c2ccc(Cl)cc2)CCN(Cc2cn[nH]c2-c2ccc(F)cc2)CC1 | -0.4%
O=c1[nH]c2cc3c(cc2cc1CN(CCc1ccccc1)C(=S)NCCCN1CCOCC1)OCCO3 | -6.5%
COc1ccc(N(C=O)C(=S)SC)cc1 | -15.1%
CCC1CCCCN1c1nc2c(C=O)c(C)nn2c2ccccc12 (centres undefined) | -5.6%
O=C(Nc1sc2c(c1-c1nc3ccccc3[nH]1)CCCC2)C1CCCC1 | 21.1%
Nc1[nH]n(-c2ccccc2)c(=O)c1N=Nc1ccc2ncsc2c1 | ?
COc1ccccc1CNC(=O)CN1c2cccc3cccc(c23)S1(=O)=O | 6.7%
CN1CCN(c2ccc(NC(=O)c3ccc([N+](=O)[O-])o3)cc2Cl)CC1 | 1.4%

3 of these compounds in a different format.
| VDR inhibitor | SMILES |
| --- | --- |
| -15.1% | COc1ccc(N(C=O)C(=S)SC)cc1 |
| -5.6% | CCC1CCCCN1c1nc2c(C=O)c(C)nn2c2ccccc12 (centres undefined) |
| 21.1% | O=C(Nc1sc2c(c1-c1nc3ccccc3[nH]1)CCCC2)C1CCCC1 |

More records follow:
SMILES | VDR inhibitor
CN1CCN(C2=C(Cl)C(=O)N(Cc3ccccc3)C2=O)CC1 | 3.7%
COc1ccc(CCNC(=O)CCn2c(=O)c3cccn3c3ccc(F)cc32)cc1OC | 4.4%
COc1ccccc1OCCNC(=O)c1ccc(Br)cc1 | -9.9%
CC(=O)NC(=S)NNC(=O)COc1ccc(Br)cc1 | -8.5%
C=C1C(=CC=C2CCC[C@@]3(C)[C@@H]2CC[C@H]3[C@H](C)CCCC(C)C)C[C@@H](O)C[C@@H]1O | 8.3%
O=C(Nc1cccs1)Nc1ccccc1Cl | 10.4%
CCOc1ccccc1NC(=O)COc1coc(CN2CCCc3ccccc32)cc1=O | ?
COc1ccc(/C=C/c2nc(S(=O)(=O)c3ccccc3)c(NCCCN(C)C)o2)cc1OC | 12.6%
CCCn1c(SCC(=O)N2CCN(C(C)=O)CC2)nc2sc3c(c2c1=O)CCC3 | -15.3%
Cc1ccccc1NC(=O)CSc1nc2scc(C)c2c(=O)[nH]1 | 4.6%
CN(C(=O)C1CCC(=O)N(C2CC2)C1)C1CCCCC1 (centres undefined) | 2.0%
O=C(c1ccc2c(=O)n(C3CCCC3)c(=S)[nH]c2c1)N1CCCCCC1 | 8.6%
CCOc1ccc(OCc2ccc(C(=O)Nc3cccnc3)o2)cc1 | -7.5%
O=c1oc2ccc3ccccc3c2c2c1SC(C(F)(F)F)C2 (centres undefined) | 0.0%
COc1ccc(OC)c(/C=N/NC(=O)CC(=O)NCc2ccccc2)c1 | 21.3%
COc1cccc(-c2cc(N)nn2C(=O)Nc2ccc(Cl)cc2)c1 | 11.3%
CCOC(=O)C1(CC2CCCCO2)CCN(Cc2cc(F)ccc2-n2cccn2)CC1 (centres undefined) | 10.5%
COc1ccc2c(c1OC)C(=O)N(c1cccc(NC(C)=O)c1)C2 | 10.7%
CC1=C(C(=O)OC2CCCCCC2)C(c2c(Cl)cccc2Cl)CC(=O)N1 (centres undefined) | -5.7%
Cc1cc([N+](=O)[O-])c(C)cc1-c1ccc(/C=N/NC(=O)Cn2nnnc2N)o1 | -6.1%
COc1ccccc1CN1C(=O)CN(C2CCCC2)C(=O)C1c1ccc(F)cc1 (centres undefined) | 2.7%
CN(C)C(=O)c1ccc(-c2ccc3ncnc(N4CCC(C(=O)O)CC4)c3c2)cc1 | 1.6%
CCc1ccc(N(CC(=O)NCc2ccc(OC)cc2)C(=O)CCC(=O)Nc2ccccn2)cc1 | -0.9%
CC(NC(=O)c1ccccc1Cl)C(=O)N1CCN(Cc2ccc3c(c2)OCO3)CC1 (centres undefined) | -0.7%
O=C(CC1NCCNC1=O)Nc1ccc([N+](=O)[O-])cc1 (centres undefined) | 8.6%
COc1ccc(C(=O)C2CCCN(C(=O)c3cc(C(C)C)no3)C2)cc1F (centres undefined) | -0.2%
CC1(C)OC(=O)C=C[C@]2(C)[C@H]3CC[C@@]4(C)[C@H](C(=O)O)OC(=O)[C@H]5O[C@]54[C@]3(C)C(=O)C[C@@H]12 | -1.5%
O=C(CSc1ccccc1C(=O)O)c1ccc([N+](=O)[O-])cc1 | ?
COc1ccc(NC(=O)CCn2cccn2)cc1OC | 6.3%
CC1=C(C(=O)Nc2ccccc2)C(c2ccco2)C(C#N)=C(SCC(=O)OC(C)C)N1 (centres undefined) | 37.8%[activator]
COc1ccc(Cl)cc1NC(=O)CCCn1c(=O)c2cccn2c2cccnc21 | 1.2%
CCc1ccc(NS(=O)(=O)c2ccc(C(=O)N(C)C)s2)cc1 | 11.7%
CC(C)(C)NC(=O)C1CCC(C)(C(=O)O)C1(C)C (centres undefined) | -1.8%
COc1cccc(C(=O)NC(=S)Nc2ccccc2N2CCCCC2)c1 | 24.2%
COc1ccc2nc(SCc3cccnc3)c(C#N)cc2c1 | 4.2%
Cc1ccc(S(=O)(=O)NCC(=O)OCCOc2cccc(Cl)c2)cc1 | 3.2%
Cc1ccc(N(CC(=O)NCC2CCCO2)C(=O)CCC(=O)Nc2ccccn2)cc1C (centres undefined) | -6.6%
O=C(NCc1ccccc1)C12CN(Cc3ccccc3)CC1C(c1cccc([N+](=O)[O-])c1)=NO2 (centres undefined) | -8.8%
O=C(COC(=O)c1ccccc1[N+](=O)[O-])NNC(=O)c1cccs1 | -10.4%
CCc1ccc(S(=O)(=O)c2cn(C)c3cc(N4CCC(C)CC4)c(F)cc3c2=O)cc1 | 17.6%
Cc1sc2ncn(CC(=O)N3CCC(C(N)=O)CC3)c(=O)c2c1S(=O)(=O)N1CC(C)CC(C)C1 (centres undefined) | 2.3%
Cc1ccc(-n2ccc(=O)c(C(=O)Nc3ccc(S(=O)(=O)N4CCOCC4)cc3)n2)cc1 | -12.2%
NC(=O)c1sc2nc(-c3ccccc3)ccc2c1N | ?
CNC(=S)N(Cc1cc2ccc(OC)cc2[nH]c1=O)CC1CCCO1 (centres undefined) | -21.4%
CC(=O)OC(C)(CCC(C)(OC(C)=O)C(C)=O)C(C)=O (centres undefined) | -18.2%
O=C(/C=C/c1ccc(F)cc1)NCc1cccs1 | -3.3%
CC1(C)CC(=O)c2cc(-c3nc(-c4ccccc4)cs3)c(=O)[nH]c2C1 | -4.0%
Cn1cc([N+](=O)[O-])c(C(=O)N/N=C/c2ccc([N+](=O)[O-])cc2)n1 | -25.2%
C=CCN1C(=O)c2ccc(C(=O)OCC(=O)N3CCN(c4ccccc4)CC3)cc2C1=O | -5.1%
CC(C)(C)N=C1C([N+](=O)[O-])=CC=C2C1=NC1(CCCCC1)N2O | -3.8%
Other structures follow:
SMILES | VDR inhibitor
COc1ccc(C(=O)Nc2nnc(SCC(=O)NCc3ccco3)s2)cc1OC | 5.2%
O=[N+]([O-])c1cc([N+](=O)[O-])c(Oc2c(F)cccc2F)cc1NN1CCCCC1 | -0.2%
Cc1cc(C)c2cc(C=O)c(Cl)nc2c1 | -3.6%
OC1c2cc(Br)ccc2N=C2CCCN21 (centres undefined) | -10.2%
COc1ccc(OC)c(NC(=O)CN2C(=O)COc3ccc(S(=O)(=O)NC4CCCC4)cc32)c1 | -13.8%
Cc1cc(C)c(C#N)c(SCCS(=O)(=O)Cc2ccccc2)n1 | 4.2%
O=C1CC(N2CCN(S(=O)(=O)c3ccccc3F)CC2)C(=O)N1c1ccc(F)cc1F (centres undefined) | 14.1%
O=C(CCNC(=O)c1ccc(Cl)cc1)NCC(c1ccco1)N1CCCCC1 (centres undefined) | -8.3%
CN1CCN(C(=O)c2ccccc2NC(=O)C(C)(C)C)CC1 | -10.1%
Cc1nccn1CC1CCC2C(C1=O)c1ccccc1N2C (centres undefined) | 3.9%
